FGF22 binding: shifts melting point of recombinant human FGF22; 1.5% of 340,000 active; Q9HCT0; recombinant FGF22 thermal shift, SYPRO orange fluorescence; percent of sucrose octasulfate shift, DMSO zero; AID 651658; calls only at 9.99 µM;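 active = melting point raised past a set limit in the mean and every replicate; inconclusive = no clear call; three in four hits are not shown here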
rRNA inh HTS: selective bacterial rRNA inhibition in E. coli | E. coli WT GFP vs humanized-ribosome RFP mutants, fluorescence, 24 h; active compounds read low; DMSO median 0, no signal -100 | GFP signal change (wild-type ribosome), % (concentration not given with the values) | 1.6% of 350,000 active | AID 720706;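 active = significant combined selectivity score with lowered wild-type GFP, culture density cut under 30%, mutant RFP and density less affected; inactive = any of these conditions unmet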; note: one replicate is shown; some compounds called inactive have numbers as strong as hits
HNF4A DNA FP: change in binding of human HNF4 alpha to DNA; 0.3% of 360,000 active; activity change, % at 10 µM; AID 1224865; HNF4a-FITC DNA binding, fluorescence polarization, 1 h; in the data active = activity change above about 30%, passing the limit was not always enough;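 note: controls were the assay level and a saturating level of protein; the project sought stronger binding though the title names inhibitors; some compounds called inactive have numbers as strong as hits; positive values seem to mean higher polarization but the record does not say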
Target sequence (P41235 whole entry, looked up): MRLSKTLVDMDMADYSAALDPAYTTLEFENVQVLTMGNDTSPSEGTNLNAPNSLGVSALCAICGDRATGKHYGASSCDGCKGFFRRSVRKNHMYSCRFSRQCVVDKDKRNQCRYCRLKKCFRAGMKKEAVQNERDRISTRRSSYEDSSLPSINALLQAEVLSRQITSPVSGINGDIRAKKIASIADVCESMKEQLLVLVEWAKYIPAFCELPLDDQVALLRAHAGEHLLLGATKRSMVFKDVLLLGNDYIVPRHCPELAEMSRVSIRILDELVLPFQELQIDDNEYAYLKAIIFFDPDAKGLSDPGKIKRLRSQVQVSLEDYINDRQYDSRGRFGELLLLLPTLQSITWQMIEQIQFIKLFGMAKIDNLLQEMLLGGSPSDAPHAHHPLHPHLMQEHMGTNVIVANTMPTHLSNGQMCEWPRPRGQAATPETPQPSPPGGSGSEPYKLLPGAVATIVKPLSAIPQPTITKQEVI
Vif A3G: HIV-1 Vif–A3G interaction blockers – biochemical, TR-FRET, GST-Vif 1-94, biotin-A3G peptide, dose response retest, primary screen (AID 1117319); 0.57% of 260,000 active; inhibition, %, or IC50 in µM where a hit was titrated; TR-FRET GST-Vif / biotin-A3G peptide binding; higher % means a stronger effect; test concentration not given here; strong numbers were not always called active;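 active = above the screen mean plus three standard deviations and confirmed in dose response; inconclusive = results disagree or hit not tested in dose response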;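 note: Vif residues 1-94 fused to GST binding biotinylated APOBEC3G peptide 110-148; 0% = full assay without inhibitor and 100% = GST in place of GST-Vif; retest series ran down from 100 µM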
Ecoli growth: blocks Escherichia coli growth; OD600, 23 h; active compounds read low; 0.21% of 330,000 active; OD600 absorbance (concentration not given with the values);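 active = OD600 absorbance below the run mean of sample wells minus 3.6 SD, in any replicate, cut at about 0.56 in these data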;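 note: stock transfer was 300 nL into about 60 µL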
ALR inh: human ALR oxidase inhibition via reduced H2O2; P55789; purified ALR, DTT oxidation, H2O2 HRP-luminol luminescence; inhibition, % (concentration not given with the values); 3.8% of 290,000 active;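 active = mean and each replicate at 75% or more; inconclusive = only one of the two met; inactive = neither met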;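 note: stock transfer was 7.5 nL into about 7.5 µL; 0% = neutral wells and 100% = wells with inactivated enzyme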
MLL AF4-AF9 inh: blocks AF4 peptide binding to human AF9. AID 651704. AlphaScreen, biotin-AF4 peptide binding to FLAG-AF9. inhibition, % at 10 µM. 0.47% of 350,000 active;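 active = every replicate reaching a set inhibition limit, whatever the replicate mean, cut at about 25% in these data; inconclusive = mean inhibition reaches that limit but some replicates miss it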;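 note: 0% = plate neutral control median and 100% = total signal loss; the record names both 10 and 1 µM as test concentration; the first replicate is given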
Target sequence (P42568 whole entry, looked up): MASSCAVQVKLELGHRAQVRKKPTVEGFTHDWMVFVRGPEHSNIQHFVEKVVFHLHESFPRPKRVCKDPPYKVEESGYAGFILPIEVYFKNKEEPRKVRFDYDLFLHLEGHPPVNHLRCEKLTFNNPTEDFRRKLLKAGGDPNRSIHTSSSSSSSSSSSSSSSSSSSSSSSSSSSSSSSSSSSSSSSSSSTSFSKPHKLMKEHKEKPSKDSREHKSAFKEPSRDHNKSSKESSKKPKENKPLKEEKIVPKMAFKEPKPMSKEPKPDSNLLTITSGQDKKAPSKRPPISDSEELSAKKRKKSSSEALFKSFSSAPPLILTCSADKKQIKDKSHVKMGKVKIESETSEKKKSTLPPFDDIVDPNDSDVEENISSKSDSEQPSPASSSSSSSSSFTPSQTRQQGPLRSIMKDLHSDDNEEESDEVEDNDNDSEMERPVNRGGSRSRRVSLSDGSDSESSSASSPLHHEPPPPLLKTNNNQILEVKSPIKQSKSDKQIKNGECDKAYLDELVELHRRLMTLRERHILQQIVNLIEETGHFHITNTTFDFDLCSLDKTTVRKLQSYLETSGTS
rRNA inh HTS OD600: second read-out of rRNA inh HTS, no call of its own (marks repeat the call); OD600 change, %; measured here: OD600 growth;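 optical density of the mix in the first replicate; 0 = DMSO median and -100 = no signal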
rRNA inh HTS RFP: also measured in rRNA inh HTS; calls as there; RFP signal change, %; measured here: RFP humanized mutant strains;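 first replicate; 0 = DMSO median and -100 = no signal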
* = called active by the depositor; i = inactive; ? = inconclusive; / = not tested or not shown; & = joins results of further samples.

SMILES	FGF22 binding	rRNA inh HTS	rRNA inh HTS OD600	rRNA inh HTS RFP	HNF4A DNA FP	Vif A3G	Ecoli growth	ALR inh	MLL AF4-AF9 inh
CCC(C)C(NC(=O)c1ccccc1NC(=O)c1ccc(OC)cc1)C(=O)NCCCn1ccnc1 (stereo not drawn)	i	10	8	-0.3	-0.8	/	0.68	/	0.0
C=CCNC(=O)N1c2ccccc2Sc2ccccc21	i	-24*	-14*	-6.1*	-3.4	-3%	0.68	-3	-0.2
COc1cc(C2NC(=O)NC(C)=C2C(=O)NCc2ccccc2)c(Cl)cc1O (stereo not drawn)	/	/	/	/	0.0	10%	0.69	16	/
Cc1cc(C)n(-c2nnc(NC(C)(C)C)nn2)n1	/	/	/	/	-2.1	1%	0.67	-19	/
CO[C@H]1CC[C@@H]2CCN(C)C(=O)C[C@H](c3ccccc3)CN(C)C(=O)c3cccc(C#N)c3OC[C@@H]1O2	i	1	3	12	/	/	/	/	1.5
CC(OC(=O)c1cnccn1)C(=O)Nc1nc(-c2cccc([N+](=O)[O-])c2)cs1 (stereo not drawn)	i	-5	-4	-2.2	2.2	-12%	0.64	/	-1.5
C[C@H](CO)N1C[C@H](C)[C@@H](CN(C)Cc2ccccc2)Oc2c(NS(C)(=O)=O)cccc2C1=O	i	0	-2	-3.3	/	/	/	/	0.6&-3.5
C/C=C/c1ccc2c(c1)O[C@@H](CN(C)C(=O)CN1CCOCC1)[C@H](C)CN([C@@H](C)CO)S2(=O)=O	i	0	-1	-1.3	/	/	/	/	3.9
CCOC(=O)c1[nH]c(C)c(CCC(=O)O)c1C	/	/	/	/	-1.2&-0.2	19%&2%	0.66&0.74	-6&1	/
CN(C)C(=O)[C@@H]1[C@@H](CO)[C@@H]2Cn3c(ccc(/C=C/c4ccccc4)c3=O)[C@@H]2N1C(=O)c1cnccn1	i	0	-4	-1.9	/	/	/	/	-1.5
O=C(C1CC1)N1CCc2cc(S(=O)(=O)N3CCCc4ccccc43)ccc21	/	/	/	/	1.0	0%	0.73	-1	/
CO[C@@H]1CN(C)C(=O)c2cc(NS(C)(=O)=O)ccc2OC[C@@H](C)N(C)C[C@@H]1C	i	5	2	0.6	/	/	/	/	-3.0

Record cards (already shown):
Shown for `C/C=C/c1ccc2c(c1)O[C@@H](CN(C)C(=O)CN1CCOCC1)[C@H](C)CN([C@@H](C)CO)S2(=O)=O` = FGF22 binding: i; rRNA inh HTS: 0; rRNA inh HTS OD600: -1; rRNA inh HTS RFP: -1.3; HNF4A DNA FP: /; Vif A3G: /; Ecoli growth: /; ALR inh: /; MLL AF4-AF9 inh: 3.9
Shown for `CO[C@@H]1CN(C)C(=O)c2cc(NS(C)(=O)=O)ccc2OC[C@@H](C)N(C)C[C@@H]1C` = FGF22 binding: i; rRNA inh HTS: 5; rRNA inh HTS OD600: 2; rRNA inh HTS RFP: 0.6; HNF4A DNA FP: /; Vif A3G: /; Ecoli growth: /; ALR inh: /; MLL AF4-AF9 inh: -3.0

More entries.
SMILES	FGF22 binding	rRNA inh HTS	rRNA inh HTS OD600	rRNA inh HTS RFP	HNF4A DNA FP	Vif A3G	Ecoli growth	ALR inh	MLL AF4-AF9 inh
COCC1CCN(C(=O)C2CCC(=O)N(Cc3cccc(F)c3)C2)CC1 (stereo not drawn)	i	10	2	1.9	0.7	7%	0.7	5	-1.9
CN(NS(=O)(=O)c1cccs1)c1ncc(C(F)(F)F)cc1Cl	i	3	-8	3.4	-1.4	/	0.71	-2	-0.1
C=CCN1C(=O)CSc2ccc(C(=O)NC(C)c3ccccc3)cc21 (stereo not drawn)	i	-8	-5	-2.7	-0.1	-6%	0.66	3	-3.3
CCN(CC(=O)Nc1c(F)cccc1F)C(=O)Cn1c(=O)cnc2ccccc21	i	4	16	-2.0	-1.2	-1%	0.7	-3	0.7
COc1ccc2c3c(c(=O)oc2c1OCC(=O)O)CCCC3	i	/	/	/	1.0	13%	0.69	/	1.1
CCOC(=O)C1CCCN(CCCc2ccccc2)C1 (stereo not drawn)	i	1&9	-1&-1	0.7&-6.9	8.6&0.7	22%	0.69&0.72	-8	-2.5&0.8
O=C1C(Cc2ccccc2)Nc2ncnc(N3CCOCC3)c2N1Cc1ccccc1 (stereo not drawn)	i	7&-3	12&3	1.2&-4.6	8.2&1.9	/	0.66	6	-28&1.4
Cc1noc(C)c1S(=O)(=O)N(C)C[C@@H]1OCCCC[C@@H](C)Oc2ccc(NS(=O)(=O)c3cccs3)cc2C(=O)N([C@@H](C)CO)C[C@@H]1C	i	4	-5	0.9	/	/	/	/	0.5
C=CCNc1nc2ccccc2nc1NS(=O)(=O)c1cccs1	/	/	/	/	3.5	73%	0.69	-1	/
CC1C(=O)OC2C1CCC1(C)C3(C)C(=O)C=CC213 (stereo not drawn)	i	4	-4	-10	-1.4	/	/	/	-1.9
COc1ccc(C(=O)COc2ccccc2C(N)=O)cc1	i	-6	0	2.3	-2.7	3%	0.67	-10	-0.6
O=C(C1CCCCC1)N1CCN(c2ncccn2)CC1	/	/	/	/	-2.1	-3%	0.69	-1	/
CCN(CC)S(=O)(=O)c1ccc(N2CCOCC2)c(NC(=O)c2ccc(=O)n(C)n2)c1	i	19	12	-3.6	-3.7	/	0.68	23	0.2
O=S(=O)(c1cccc(S(=O)(=O)N2CCC(Cc3ccccc3)CC2)c1)N1CCOCC1	/	/	/	/	-1.1	29%	0.69	4	/
O=C(Nc1ncccn1)c1cccc(F)c1	i	13	14	1.5	4.7	/	0.66	0	-0.3
Cc1ccc(NC(=O)CSc2ccc(C(N)=O)cc2[N+](=O)[O-])cc1	i	0	1	-3.5	0.1	/	0.73	2	-1.2
COc1cc(CC(=O)N2CCN(S(=O)(=O)c3ccc(C(C)C)cc3)CC2)cc(OC)c1OC	i	/	/	/	-2.1	5%	/	/	-3.4
CCOC(=O)c1cc2c(C)n(-c3ccc(OCC)cc3)c(C)c2ccc1=O	/	/	/	/	3.9	27%	0.67	20	/
CC1(c2ccccc2)O[C@@H]2C[C@H]3[C@@H]4CCC5=CC(=O)C=C[C@]5(C)[C@@]4(F)[C@@H](O)C[C@]3(C)[C@]2(C(=O)CO)O1 (stereo partly drawn)	i	-22*	-13*	0.3*	3.3	13%	0.68	-4	2.8
COCCN=C1Sc2nc3cc4c(cc3cc2CN1CC1CCCO1)OCO4 (stereo not drawn)	i	6	4	-0.9	-0.8	14%	0.67	-2	-1.2
Cc1cccc(NS(=O)(=O)c2nnc(NC(=O)C3CCCCC3)s2)c1	i	-17	-32	-2.8	6.0	/	0.69	6	-7.0
CCOc1ccccc1C(=O)Nc1cc(C(=O)NCCc2ccccc2)ccc1Cl	/	/	/	/	-1.4	?	0.69	-5	/
COc1ccc(CN2C(=O)CS/C2=N/N=C/c2ccccc2)cc1	i	9	21	3.6	-2.0	/	/	2	0.0
O=C(O)CCC(=O)CCC(=O)c1ccc(Cl)cc1	/	/	/	/	2.0	31%	0.67	-3	/
O=C(/C=C/c1ccco1)Nc1ccc(C(=O)N2CCOCC2)cc1	/	/	/	/	-0.6	?	0.74	5	/
CC(C)(C)OC(=O)NN1CC(=O)N2Cc3ccccc3C[C@@H]2C1=O	i	8	12	-0.2	3.4	-1%	0.68	-13	0.6
COc1ccccc1C(=O)NCCOc1ccc(C(C)(C)C)cc1	i	-38	-72	-6.9	-3.6	/	0.67	-2	0.7
COc1cc(NC(=O)CCN2C(=O)NC3(CCCC3)C2=O)c(OC)cc1Cl	i	1	2	-2.6	1.3	-4%	0.67	1	-14
CCCC(=O)C1C(=O)CC(CC(C)SCC)CC1=O (stereo not drawn)	i	16	7	2.6	3.3	0%	0.65	-5	-1.3
O=C(O)C[C@H]1C=C[C@@H](NC(=O)c2ccncc2)[C@H](CO)O1	i	-1	-3	-1.9	/	/	/	/	-1.3
Cc1ccc(CCNc2ccc3ccccc3c2)cn1	/	/	/	/	-1.1	2%	0.71	99*	/
C[C@H]1CN([C@@H](C)CO)C(=O)c2cccc(NC(=O)Nc3ccc(F)cc3)c2O[C@H]1CN(C)C(=O)Nc1ccc2c(c1)OCO2	i	-7	4	2.4	/	/	/	/	5.4
Cc1ccc(OCC(=O)NNC(=O)Cn2c(=O)cnc3ccccc32)cc1	i	22	11	-1.0	3.7	-3%	0.61	-1	0.1
CC(C)NC(=O)CCn1nc(-c2ccc(Cl)cc2)c2ccccc2c1=O	i	-2	-3	-4.0	-1.4	0%	0.67	-18	-1.5
Cc1cccc(C(=O)c2ccccc2C(=O)O)c1O	/	/	/	/	0.0	-9%	0.7	/	/
COc1ccc(-c2ccc([C@H]3[C@H]4CN(Cc5ccccc5)CC(=O)N4[C@H]3CO)cc2)cc1	i	-5	-3	3.1	/	/	/	/	4.3
COc1ccc(N2CCN(C(=O)c3sc4nc(-c5ccc(F)cc5)cn4c3C)CC2)cc1	i	1	10	-2.6	6.2	/	0.73	-6	-1.7
COn1c(C)c(C)c2c3nonc3ccc21	i	-12	-17	5.9	1.2	13%	0.64	/	0.5
C=CCOn1c(=O)c(-c2ccc(Cl)cc2)[n+]([O-])c2ccccc21	i	-3	2	1.5	3.8	-9%	0.68	/	-2.3
CCc1ccc(CNC(=O)CCCC(=O)n2nc(C)c3ccccc32)cc1	i	4	9	0.6	-1.4	/	0.67	-2	1.2
CCC(=O)N(C)C[C@@H]1Oc2ncc(-c3ccc(F)cc3)cc2C(=O)N([C@@H](C)CO)C[C@@H]1C	i	3	6	-1.7	/	/	/	/	-1.7
COC(=O)CN(Cc1ccccc1)S(=O)(=O)c1ccc(OC)c(OC)c1	/	-2	0	0.9	-3.7	1%	0.7	0	/
Cc1ccnc(NC(=O)C2CCN(S(=O)(=O)c3ccc4ccccc4c3)CC2)c1	/	10	15	0.9	3.6	-7%	0.69	-1	1.1
CN(C)CCCNC(=O)C[C@H]1C[C@H](C(=O)N2CCCCC2)[C@@]2(C)c3[nH]c4cc(-c5ccco5)ccc4c3CCN2C1=O	i	-6	-4	4.0	-2.9	0%	0.7	/	24
C/C(CC(=O)Nc1cccnc1)=N\NC(=O)C(=O)NC(C)C	i	24	10	4.3	0.6	2%	/	33	2.5
Cc1ccccc1N(C(=O)c1ccccn1)C(C(=O)NCc1ccccc1)c1ccncc1 (stereo not drawn)	i	4	0	-0.1	1.3	/	0.6	-7	-9.7
CCCCn1cnc2c(SCc3ccc(Br)cc3)nc(N)nc21	i	-6	7	1.1	-4.2	-11%	0.69	/	1.0
CCC(=O)Nc1ccc2c(c1)OC[C@H](C)N(CCc1ccccc1)C[C@H](C)[C@@H](OC)CN(C)C2=O	i	-9	-13	0.0	/	/	/	/	0.7
COc1cc(OC)c(NC(=O)CN(C)S(=O)(=O)c2ccc(-c3ccc(=O)[nH]n3)s2)cc1Cl	i	-15	-13	-7.0	-1.1	/	0.7	-12	0.3
Cc1ccccc1OCc1nc(-c2ccc(NC(=O)c3ccc4c(c3)OCO4)cc2)no1	/	/	/	/	-0.8	-20%&-6%	0.78	/	/
Cc1cc(C)cc(-n2nnc3ccccc3c2=O)c1	i	1	2	-1.9	1.1	5%	/	/	2.1
Cc1ccc(S(=O)(=O)N(C)C[C@H]2OCCCC[C@H](C)Oc3ccc(NS(C)(=O)=O)cc3C(=O)N([C@H](C)CO)C[C@H]2C)cc1	i	-9	2	0.2	/	/	/	/	-4.5
COc1ccc(OC)c(N=C(N)N=C(N)N)c1	i	/	/	/	-1.9	-5%	0.7	/	4.8
COc1ccc(C=O)cc1CN1C(=O)c2ccccc2C1=O	i	-6	-1	-1.0	2.3	-6%	0.68	16	0.2
CC(C)N1CCc2c(sc(NC(=O)Cc3ccccc3)c2C#N)C1	i	3	3	-6.7	-2.3	/	0.78	/	0.0

Not all compounds are listed (hit frequency here may not be typical).
